HSV augment: HSV replication enhancement; 220,000 compounds, 0.005% hits; AID 1956; maximum fold increase; HSV replication augmentation in cells, fold increase;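 active = peak rise of 1.5-fold or more in the series; inconclusive = self-fluorescent or not available for retest; tested in PC3 cells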;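 note: first round at 10 µM; read as green reporter fluorescence; hits show the peak of a series up to 25 µM; 1 = signal of infected wells without compound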
GALR2 ag: agonists of human galanin receptor 2 (GALR2) | O43603 | GALR2-expressing cells, agonist activation read-out | activation, %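 (tested at 5 µM)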 | 140,000 compounds, 0.48% hits | AID 803;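 active = above mean plus 3 SD of all compounds, about 5% in these data, not always enough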;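 note: 0% = vehicle buffer wells and 100% = reference agonist at full effect; tested in CHO reporter cells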
Target sequence (O43603 whole entry, looked up): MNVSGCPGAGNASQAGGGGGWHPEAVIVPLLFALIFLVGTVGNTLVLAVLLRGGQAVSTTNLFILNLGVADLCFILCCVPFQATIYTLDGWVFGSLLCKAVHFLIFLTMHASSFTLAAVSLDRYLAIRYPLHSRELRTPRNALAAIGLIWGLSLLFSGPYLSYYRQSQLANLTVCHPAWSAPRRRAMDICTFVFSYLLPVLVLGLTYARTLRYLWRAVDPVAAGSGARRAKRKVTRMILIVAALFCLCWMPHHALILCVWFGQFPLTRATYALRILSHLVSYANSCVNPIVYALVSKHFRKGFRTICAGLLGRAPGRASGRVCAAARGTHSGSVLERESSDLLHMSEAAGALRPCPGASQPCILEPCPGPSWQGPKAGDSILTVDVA
PKD1 inh: blocks activity of human protein kinase D1; PKD1 kinase fluorescence polarization assay; inhibition, %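 (about 10 µM by stock and volumes)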; 200,000 compounds, 0.056% hits; Q15139;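 active = inhibition of 50% or more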;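 note: controls were vehicle for no effect and a reference inhibitor for full effect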
RGS16-Gao: modulates binding between human RGS16 and Galphao | O15492+P09471 | bead-based flow cytometry RGS16-Galphao binding, fluorescence; actives lie on both sides | binding response (% of control), % at 10 µM | 220,000 compounds, 0.38% hits | AID 1441;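 active = below 25% or above 175%, edge rows of some plates excepted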;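 note: Galphao activated by GDP with aluminum fluoride before binding; 100% = wells without compound and 0% = beads without RGS; some results beyond the cut were filed as inactive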
Target sequence (O15492 whole entry, looked up): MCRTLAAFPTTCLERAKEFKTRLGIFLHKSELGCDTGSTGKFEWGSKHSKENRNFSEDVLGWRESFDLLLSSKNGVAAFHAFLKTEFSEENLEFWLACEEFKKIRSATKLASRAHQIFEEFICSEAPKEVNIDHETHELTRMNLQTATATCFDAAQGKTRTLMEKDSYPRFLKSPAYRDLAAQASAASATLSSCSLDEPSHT
Target sequence (P09471 whole entry, looked up): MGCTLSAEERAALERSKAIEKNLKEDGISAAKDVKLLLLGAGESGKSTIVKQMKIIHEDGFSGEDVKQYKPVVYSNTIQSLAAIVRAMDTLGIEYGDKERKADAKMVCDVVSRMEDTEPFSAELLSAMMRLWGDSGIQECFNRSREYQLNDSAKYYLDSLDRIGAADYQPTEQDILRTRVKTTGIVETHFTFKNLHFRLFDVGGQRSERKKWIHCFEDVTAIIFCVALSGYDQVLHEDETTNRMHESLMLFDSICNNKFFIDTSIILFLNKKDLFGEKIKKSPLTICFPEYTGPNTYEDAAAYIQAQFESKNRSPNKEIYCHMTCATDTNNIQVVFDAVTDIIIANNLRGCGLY
INS promoter inh: TRM-6 insulin promoter activity inhibition; 130,000 compounds, 0.9% hits; TRM-6 cells (human fetal islet line), insulin promoter-eGFP reporter, imaging; reporter expression induced with tamoxifen; inhibition, % at 2 µM;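 active = inhibition above the mean plus 3 SD, with well images judged a real hit on visual review, cut at about 60% in these data, passing the limit was not always enough; inconclusive = inhibition over the cutoff but images rejected on review; inactive = inhibition not above the cutoff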
INS promoter inh cell count: recorded beside INS promoter inh, whose call it bears; normalized cell count, %; measured here: cell count, toxicity; reference of the scale not given here;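 cells exposed to compound for 48 h; stained nuclei by imaging scaled within each plate; lower means fewer cells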
HSV augment primary fold: recorded beside HSV augment, whose call it bears; fold increase; compound at 10 µM; measured here: primary screen fold increase 10 uM; tested in PC3 cells;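 GFP signal in the first replicate; 1 = infected wells without compound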
The depositor's hits bear a star; i = inactive; ? = inconclusive; / = no result given. Random draw from the library; about 1.3% have a hit in one of these screens.

SMILES	HSV augment	HSV augment primary fold	GALR2 ag	PKD1 inh	RGS16-Gao	INS promoter inh	INS promoter inh cell count
O=c1c2ccccc2ncn1CCOc1ccccc1[N+](=O)[O-]	i	0.95	/	-1	97	/	/
ON1C(c2ccccc2)CC2(O)c3nonc3CCC12 (centres undefined)	i	1.1	-1.1	-11	100	/	/
CCc1ccc(OCCOCC(O)CNC(C)CC)cc1 (centres undefined)	i	0.7	-1.0	-6	110	-32	64
Cc1cccc(C)c1NC(=O)CSc1nc(COc2ccccc2)nc2ccccc12	i	0.9	-0.5	-2	98	32	121
CC(=O)C1=C(O)C(=O)N(CCNCCO)C1c1ccccc1 (centres undefined)	/	/	-1.4	-2	105	-14	100
C#CCOC(=O)CCC(=O)NCCc1ccccc1	i	0.95	-0.9	-16	90	7	124
Fc1ccc(-c2csc(N3CCOCC3)n2)cc1	i	1.1	/	/	101	/	/
Cc1cc(N/N=C/c2ccncc2)c([N+](=O)[O-])cc1[N+](=O)[O-]	i	0.78	/	/	97	/	/
CCc1ccc(NC(=S)NCc2ccccc2)cc1	i	1	/	-4	101	/	/
O=C(Cn1nnc(-c2ccc(CN3CCOCC3)cc2)n1)Nc1nc(-c2ccccc2)cs1	i	0.87	-0.8	-3	107	-50	122
CC(=O)c1csc(COc2ccc(Cl)cc2)n1	i	1.1	/	/	105	/	/
NC(=O)c1c(NC(=O)c2cccnc2)sc2c1CCCC2	i	1.1	/	-2	99	44	59
Cc1cc2nc3n(c2cc1C)CC1CC(C(=O)NCc2ccco2)N(C)C31 (centres undefined)	i	0.83	/	/	95	/	/
Cc1ccc(NC(=O)c2ccc3c(c2)N(CC(=O)N2CCCCC2)C(=O)C(C)(C)O3)cc1	i	1.2	-0.6	0	97	17	101
Cc1cc(C)c(-n2nnnc2SCC(=O)c2cc3ccccc3o2)c(C)c1	i	1.2	/	/	103	/	/
COc1cccc(NC(=O)COc2c(F)c(F)c(C(F)(F)F)c(F)c2F)c1	i	1	0.0	4	114	12	149
COc1ccc(CNC(=O)CN(CC2CCCO2)C(=O)CNS(=O)(=O)c2ccc(F)cc2)cc1 (centres undefined)	i	0.88	-0.6	-8	101	11	131
CCO/C(C)=C1/SC(=S)NC1=O	?	/	/	/	104	/	/
Cc1ccc(Nc2c([N+](=O)[O-])c(=O)n(C)c3ccccc23)cc1	i	0.9	/	-3	112	/	/
C[N+](C)(C)CCOc1ccc([N+](=O)[O-])cc1	i	0.97	/	-2	103	/	/
Cc1cc(C)n2nc(CCCO)nc2n1	i	1	/	-1	104	/	/
CCN(CC)S(=O)(=O)c1ccc(Cl)c(NC(=O)CSc2cccc[n+]2[O-])c1	i	1	/	/	99	/	/
Cc1cc(C(=O)NNC(=O)c2ccc(S(=O)(=O)N(C)C)cc2)c(C)o1	i	0.94	-1.0	-3	106	-31	102
COc1ccccc1NC(=O)C1=C(C)Nc2nc(CCCO)nn2C1c1cccnc1 (centres undefined)	i	0.9	-0.1	-6	98	43	127
Cc1cccc(NC(=O)CCNC(=O)c2ccco2)c1C	i	0.99	/	0	93	-44	131
Cn1ccnc1Sc1ccc(C(N)=O)cc1[N+](=O)[O-]	i	1.1	/	-4	101	/	/
COc1ccc(Oc2c(Cl)cnn(-c3ccc(Cl)c(Cl)c3)c2=O)cc1	i	0.62	-2.4	17	98	10	69
COc1ccccc1C(=O)N/C(=C/c1ccc(Br)cc1)C(=O)NCC(=O)O	i	1.1	-2.1	-11	97	40	112
CCOC(=O)C(C(=O)OCC)C(C[N+](=O)[O-])c1ccccc1 (centres undefined)	i	0.91	/	-2	99	/	/
CCCCOc1ccc(N2CC(C(=O)NCCc3ccc(OC)c(OC)c3)CC2=O)cc1 (centres undefined)	i	0.98	/	-6	100	-21	120
N#CNC(=Nc1cccc(F)c1)SCc1ccccc1	i	0.82	-0.7	0	77	14	99
COc1ccc(CCNC(=O)Cc2cc(OCc3ccccc3)c(OC)cc2[N+](=O)[O-])cc1OC	i	1.1	-2.0	0	94	/	/
Cc1cc(=O)[nH]c(SCc2nnc(-c3ccccc3)o2)n1	i	1.1	-0.5	-1	111	18	201
O=C(O)Cc1ccc(C(=O)CSc2ccccc2)s1	i	1.1	/	/	98	/	/
COCCn1c(SCC(=O)N2CCCc3ccccc32)nc2cccnc21	i	1	-2.0	21	93	-11	116
CCOC(=O)COn1c(=O)c(-c2ccco2)[n+]([O-])c2ccccc21	i	1	0.7	-10	97	/	/
CCCN1C(=O)C(Cc2nc3ccccc3c(=O)n2-c2ccccc2)c2ccccc21 (centres undefined)	i	0.98	-0.4	3	165	-52	53
CC(=O)c1ccc(N2CCN(C(=O)Nc3ccc(F)cc3)CC2)cc1	i	0.88	/	-3	101	/	/
Cc1nn(-c2ccc(F)cc2F)c2c1-c1nc(N3CCCC3)ncc1CC2	i	0.92	2.2	11	103	/	/
Cc1ccc(C(=O)/C=C/Nc2cccc([N+](=O)[O-])c2)o1	i	1.1	-1.9	10	110	50	128
Cc1onc(CO)c1C(=O)Nc1nccs1	i	0.95	/	0	104	9	164
Cc1c(/C=N/NC(=O)c2cccnc2)c2ccccn2c1C(=O)c1ccc(F)cc1	i	0.76	0.5	-2	96	-32	34
COc1ccc(N(Cc2cc3cccc(C)c3[nH]c2=O)C(=O)C2CCCO2)cc1 (centres undefined)	i	0.86	/	/	100	/	/
O=C1c2ccccc2C(=O)N1CCSc1ccccc1	i	0.8	-1.9	-8	110	46	113
COc1ccccc1OCc1csc(NC(=O)c2ccco2)n1	i	0.93	-2.0	-3	-42	/	/
Cc1cc(OC(=O)c2ccc(Cl)cc2)cc(=O)n1C	i	0.99	-0.3	14	96	/	/
CCc1cc2c(SCC(=O)Nc3cc(C)on3)ncnc2s1	i	1.1	/	-3	100	14	147
CCOc1ncccc1C(=O)Nc1cccc(-c2nc3cccnc3s2)c1	i	1	/	/	100	/	/
O=CNC(n1cnc2c(N3CCOCC3)ncnc21)C(Cl)(Cl)Cl (centres undefined)	i	0.98	/	/	99	/	/
CCOC(=O)CSc1nc(N)c(C#N)c(-c2ccc(OC)cc2)c1C#N	i	1.1	-1.7	-16	93	/	/
Cc1cc(OCC(=O)c2ccc(C(F)(F)F)cc2)n2cnnc2n1	i	1.1	/	/	100	/	/
COC(=O)c1ccsc1NC(=O)CN1C(=O)CCC1=O	i	0.97	/	/	103	/	/
O=C(Nc1ccc(S(=O)(=O)Nc2nccs2)cc1)c1ccc(F)c(S(=O)(=O)N2CCOCC2)c1	i	0.94	/	4	101	/	/
COc1ccc2c(C(=O)CN3CCSCC3)c[nH]c2c1	i	0.92	/	/	115	/	/
O=C(O)CSCC(=O)Nc1ccc(Cl)cc1C(F)(F)F	i	1.1	/	-1	99	-29	81
CCc1nc(N[C@@H](Cc2c[nH]c3ccccc23)C(=O)O)c2oc3ccccc3c2n1	i	0.94	-0.4	-7	98	-21	144
Cc1ccc(N2CCN(/N=C/c3ccccc3)CC2)cc1	i	0.93	/	-6	97	/	/
COc1ccccc1CNC(=O)/C=C/c1cc2c(cc1Br)OCO2	i	0.99	-1.5	-10	104	-26	121
O=C(NCCO)c1ccc2c(c1)S(=O)(=O)c1ccccc1C2=O	i	1.1	0.1	3	100	-71	138
CC(=O)O/N=C/c1c(Cl)n(C)c2ccccc12	i	1.2	/	-5	100	-12	118

Sorted by molecular weight (rising): 3 of the compounds above
SMILES	HSV augment	HSV augment primary fold	GALR2 ag	PKD1 inh	RGS16-Gao	INS promoter inh	INS promoter inh cell count
Cc1ccc(N2CCN(/N=C/c3ccccc3)CC2)cc1	i	0.93	/	-6	97	/	/
O=c1c2ccccc2ncn1CCOc1ccccc1[N+](=O)[O-]	i	0.95	/	-1	97	/	/
O=C(NCCO)c1ccc2c(c1)S(=O)(=O)c1ccccc1C2=O	i	1.1	0.1	3	100	-71	138

(further entries)
SMILES	HSV augment	HSV augment primary fold	GALR2 ag	PKD1 inh	RGS16-Gao	INS promoter inh	INS promoter inh cell count
Cc1ccc(C)c(S(=O)(=O)Nc2ccc(C(=O)NCCc3ccccn3)cc2)c1	i	0.94	/	4	99	50	72
CC(C)(C)c1ccc(C(=O)NC(=S)NCc2cccnc2)cc1	/	/	-0.8	6	99	-50	70
COc1cccc(CCNC(=O)CC2C(=O)NCCN2Cc2ccc(Cl)c(F)c2)c1 (centres undefined)	i	1.1	/	-3	114	/	/
COc1cccc(C(=O)/C=C/Nc2cccc(O)c2)c1	?	/	-0.8	-1	103	-10	111
Cc1cc(NC(=O)CCN2C(=O)C3C4C=CC(C4)C3C2=O)ccc1Br (centres undefined)	i	0.94	/	7	103	/	/
OCCSc1nnc(Nc2ccccc2)s1	i	1.1	-3.1	-1	101	/	/
CSCC[C@H](NC(=O)OC(C)(C)C)C(=O)N1CCC(C(=O)N[C@H](C(=O)O)C(C)C)CC1	i	0.77	-2.7	-5	95	-17	116
CCCCc1nnc(NC(=O)CSc2nc(=O)cc(N)n2-c2ccccc2)s1	i	1.1	-1.3	3	93	22	55
Cn1c2ccccc2c2cc(C(=O)N3CCOCC3)sc21	i	1	-2.4	-2	88	10	53
Cc1cc(=O)[nH]c(SCc2cc(=O)n3nc(C)sc3n2)n1	i	0.92	-2.4	-2	104	/	/
Cc1nc(-c2ccccc2)sc1C(=O)/C=C/c1ccccc1	/	/	-2.2	1	101	-23	105
CCC(C(=O)Nc1nccs1)c1ccccc1 (centres undefined)	i	0.85	-0.7	-3	100	12	88
COc1ccccc1N1C(N)=NC(N)=NC1(C)C	i	0.88	-1.5	-4	57	-38	112
Cc1ccc(Cn2c(=N)c(C#N)cc3c(=O)n4cccc(C)c4nc32)cc1	i	0.83	/	-7	113	-70	110
Cn1cccc1CC(=O)NNC(=O)Nc1ccc(F)cc1	i	1.1	-0.8	5	87	-150	92
Nc1ccc(-n2nncc2-c2ccc(Cl)cc2)cc1	i	0.99	-1.1	7	67	-27	92
COc1ccc(S(=O)(=O)N2CCC(C(=O)Nc3c(F)cccc3F)CC2)cc1	i	1	-1.7	1	112	/	/
Cc1cccc(C(=O)N2CCN(C(=O)c3cccc(C)c3)C(C)C2)c1 (centres undefined)	i	0.97	-3.1	-3	91	4	93
CCC(C)(C)n1nnnc1C(c1ccccc1)N1CCN(Cc2ccccc2)CC1 (centres undefined)	i	0.97	/	-4	98	/	/
COc1ccccc1C(=O)N(Cc1ccco1)C1CCS(=O)(=O)C1 (centres undefined)	i	0.96	-0.5	-1	106	/	/
CC(=O)c1ccc(NC(=O)COC(=O)c2ccccc2N=Nc2ccc(N(C)C)cc2)cc1	i	0.88	-1.1	3	110	/	/
N#CCC(=O)NCC1(c2ccccc2)CCCC1	i	0.96	-0.7	5	104	45	112
O=C(C1=C(c2ccccc2)C(=O)c2ccccc2C1=O)c1ccccc1	i	0.69	0.3	-1	106	-3	127
Cc1ccc(S(=O)(=O)/C(C#N)=C/c2ccccc2OCc2ccccc2)cc1	i	0.96	-1.5	-6	118	/	/
O=C(COC(=O)c1ccccc1NC(=O)c1ccco1)NCc1ccc2c(c1)OCO2	i	1	-2.0	1	89	-19	100
COC(=O)c1sccc1NC(=O)C1CC2CCC1C2 (centres undefined)	i	0.88	-0.3	-1	99	19	127
CC1CCCN(C(=S)NC2CCCC2)C1 (centres undefined)	i	0.79	/	-6	97	-12	78
N#Cc1ncc(C(F)(F)F)cc1Sc1ccccc1N	i	0.76	0.8	7	101	/	/
O=C1COc2ccc(-c3csc(NCC4CCCO4)n3)cc2N1 (centres undefined)	i	1	-0.1	-9	97	/	/
CCSc1cc(N2CCCC2)nc(-c2cccc(C)c2)n1	i	0.69	-0.5	9	120	38	74
CC(=O)Nc1ccc(NC(=O)Nc2ccccc2C)cc1	i	0.88	/	-6	96	/	/
CCn1c(C)nc2cc(C(=O)NNC(=S)Nc3ccc(Cl)cc3)ccc21	i	1	/	/	98	/	/
O=C1CC(c2cc(F)ccc2F)c2cc3c(cc2N1)CCC3 (centres undefined)	i	0.83	/	-2	99	/	/

Structures shown so far containing a COOH group (5):
SMILES	HSV augment	HSV augment primary fold	GALR2 ag	PKD1 inh	RGS16-Gao	INS promoter inh	INS promoter inh cell count
COc1ccccc1C(=O)N/C(=C/c1ccc(Br)cc1)C(=O)NCC(=O)O	i	1.1	-2.1	-11	97	40	112
O=C(O)Cc1ccc(C(=O)CSc2ccccc2)s1	i	1.1	/	/	98	/	/
O=C(O)CSCC(=O)Nc1ccc(Cl)cc1C(F)(F)F	i	1.1	/	-1	99	-29	81
CCc1nc(N[C@@H](Cc2c[nH]c3ccccc23)C(=O)O)c2oc3ccccc3c2n1	i	0.94	-0.4	-7	98	-21	144
CSCC[C@H](NC(=O)OC(C)(C)C)C(=O)N1CCC(C(=O)N[C@H](C(=O)O)C(C)C)CC1	i	0.77	-2.7	-5	95	-17	116
